Tg IFNy HTS: blocks Toxoplasma gondii growth in the presence of IFN-gamma. Toxoplasma gondii growth in IFN-gamma-treated host cells; hits give low values; reference of the scale not given here. AID 1259416. 3.8% of 69,000 active. activity change, negative = inhibition, %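 (about 20 µM by stock and volumes)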;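 active = below -70%; inconclusive = fit judged invalid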;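 also: host cells are HeLa cells infected with Toxoplasma gondii; parasite growth read as luciferase light; one replicate is shown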
Starred values were filed as active, the others as inactive; ? = inconclusive; & = joins results of further samples.

The first 3 entries, to show the layout:
SMILES	Tg IFNy HTS
C/C=C/c1ccc([C@@H]2[C@@H](CO)N3CCCCN(S(=O)(=O)c4ccc(OC)cc4)C[C@@H]23)cc1	-19
CS(=O)(=O)NCC1OCCc2cn(CC3CC3)nc21 (stereo not given)	-15
CCc1cnc(-c2cc(C)ccc2OC)nc1	1

This part in full, previewed entries included:
SMILES	Tg IFNy HTS
C/C=C/c1ccc([C@@H]2[C@@H](CO)N3CCCCN(S(=O)(=O)c4ccc(OC)cc4)C[C@@H]23)cc1	-19
CS(=O)(=O)NCC1OCCc2cn(CC3CC3)nc21 (stereo not given)	-15
CCc1cnc(-c2cc(C)ccc2OC)nc1	1
N#C[C@@H]1[C@@H](c2ccccc2C2=CCCCC2)[C@@H](CO)N1C(=O)CN1CCOCC1	-1
CCOCC1CN(S(=O)(=O)CC)Cc2ncn(CC3CC3)c21 (stereo not given)	83
Cc1ccc(CN(Cc2cccnc2)Cc2cccs2)o1	-11
Cn1cnc2c(N3CCOCC3)nc(C3CCN(C(=O)C4(C)CC4)CC3)cc21	-24
O=S(=O)(C1CC1)N1CCCCC1c1ccc(F)cc1 (stereo not given)	-19
COCCNC(=O)[C@@]12COC[C@@H]1CN(Cc1cnn(C)c1)C2	10
C=CCOCC1c2nnn(C)c2CCN1S(=O)(=O)c1cn(C)cn1 (stereo not given)	7
Cn1nc(-c2ccccn2)c2c1NC(=O)CC2c1nc2c(s1)CCCC2 (stereo not given)	-21
CSCC[C@H]1CN2CCC[C@H]2CN1Cc1cccc(-n2nc(C)cc2C)c1	4
CCn1c(C2CCN(C(=O)c3ccc4cccnc4n3)CC2)nn(C)c1=O	-8
CN(Cc1cnccn1)C(=O)CN(c1cccc(F)c1)S(C)(=O)=O	-5
Cc1ccc2c(c1C)-n1cccc1C1(CCN(S(=O)(=O)c3ccc(F)cc3F)CC1)N2	14
Cc1nc([C@@H]2C[C@@H]3CN(C(=O)c4sccc4C)C[C@@H]3O2)n[nH]1	-17
O=C(C[C@@H]1CC[C@H]2[C@@H](COC[C@H](O)CN2C(=O)c2ccc(F)cc2)O1)N1CCCCC1	-6
CC1(C)CCc2cc(-c3ccn(C(=O)c4ccc(Cl)cc4)n3)ccc2O1	203
Cc1ccc(C)c(NC(=O)C(CC(C)C)NS(=O)(=O)c2ccc3[nH]c(=O)ccc3c2)c1 (stereo not given)	12
O=C(NCC1(Cn2cccn2)CC1)c1ccc(CC2CCCNC2)cc1 (stereo not given)	12
O=C(O)c1ccccc1CN1CCC(N2CCSCC2)CC1	-7
C[C@@H]1CN([C@H](C)CO)C(=O)CCCn2cc(nn2)CO[C@@H]1CN(C)C(=O)c1ccc(N2CCN(C)CC2)cc1	131
O=C1CCC2C(CCN2Cc2ccc(F)cc2)N1CC1CCOCC1 (stereo not given)	1
CS(=O)(=O)N1CCO[C@@H]2CN(C(=O)c3ccoc3)CC[C@H]2C1	5
CCOc1ccc(-c2nc3c(s2)CN(C(=O)Nc2ccccc2CC)CC3)cc1	-4
CO[C@@H]1CN(C)C(=O)c2cc(NC(=O)c3cccc(F)c3)ccc2OC[C@@H](C)N(C)C[C@H]1C	3
Cc1ccnn1CCC(=O)N1CCNCC1C(=O)N1CCOCC1 (stereo not given)	-45
CC(=O)Nc1ccc(-c2cn3nc(C)c(C)nc3n2)cc1	-1
CCc1c(C)sc2c1CCN(Cc1nc(-c3ccccc3C)oc1C)C2c1ccccc1 (stereo not given)	43
C[C@@H]1CCCCO[C@@H](CN(C)S(=O)(=O)c2ccc(Cl)cc2)[C@@H](C)CN([C@@H](C)CO)C(=O)c2cc(NC(=O)Nc3ccc(C(F)(F)F)cc3)ccc2O1	176
Cc1nc(-c2coc3c(CN(C)C)c(O)ccc3c2=O)cs1	-16
N[C@@H](Cc1cnc[nH]1)C(=O)NCc1ccc2sccc2c1	48
O=C1NCCN(CC2CC2)C12CCN(Cc1ccc3c(c1)OCO3)CC2	-24
CO[C@@H]1CN(C)C(=O)c2cc(NC(=O)C3CCOCC3)ccc2OC[C@H](C)NC[C@@H]1C	30
Cc1ccc(-c2nc(Cn3ccn4nc(-c5ccccc5)cc4c3=O)c(C)o2)cc1	-11
CCc1nc2ccccc2c(C(=O)Nc2ccc(C)cc2C)c1C	-2
COc1cccc(-n2c(=O)c(C(=O)Nc3ccc(C)c(C)c3)c(O)c3cccnc32)c1	150
O=C(NCCc1nc(-c2ccccn2)no1)c1cccc2ccnn12	-2
CN(C)C(=O)N1CCC2(CC1)C(=O)N(C)C2c1ccccc1 (stereo not given)	-1
NC(=O)N1Cc2nccn2CC(Cn2ncccc2=O)C1 (stereo not given)	-10
CCn1nc(C(=O)Nc2ccccc2-c2ccc(OC)cc2)c2ccccc2c1=O	-36
CC(C)NC(=O)N1CCn2c(CN3CCN(C)CC3)cnc2C1	-5
CC(C)c1cc(CN(C)Cc2cnc3c(-c4ccccc4)cnn3c2)on1	-1
CCCCCN(CCCCC)C(=O)C(CCC(=O)O)NC(=O)c1ccc(Cl)c(Cl)c1 (stereo not given)	6&23
O=C(CSc1cn[nH]n1)NCCc1ccccc1	-10
CC(C)c1cnn2c(NCc3ccccc3)cc(NCCCCCCN)nc12	-28
COc1ccc(N(Cc2nc(-c3ccccc3)oc2C)S(=O)(=O)c2ccc(C)cc2)cc1	3
CC(C)N1CCNC(=O)C1CC(=O)NCc1csc2ccc(Cl)cc12 (stereo not given)	6
COCCC(=O)N1CCCc2c(C#N)nn(C)c2C1	-16
Cc1cc2c(cc(C(=O)OC(C)C(=O)NCc3ccccc3)n2C)o1 (stereo not given)	-3

Carrying on.
SMILES	Tg IFNy HTS
COc1cccc(C)c1NC(=O)c1cccc(CN2CC[C@H](O)C2)c1	10
CCCc1cc(CNC2CCN(C(=O)C3CCCO3)CC2)on1 (stereo not given)	-4
COc1ccc(CC(=O)N2CCC3(CC2)Nc2cc(C)ccc2-n2cccc23)cc1	44
O=C(NCCc1csc(-c2ccccc2)n1)C1CCN(C(=O)CCc2ccccc2)CC1	-10
Cc1noc(C)c1CN1CCCC2(CCN(S(=O)(=O)c3ccc(F)cc3)C2)C1 (stereo not given)	-14
Cn1nc(C2CCN(C(=O)C3COCCN3)CC2)n(-c2ccccc2)c1=O (stereo not given)	20
CS(=O)(=O)n1c(C(=O)C2CC2)cc2c1c1ccccc1n2CC1CC1	-3
Cc1nc(CN(Cc2ccc3c(C)cc(=O)oc3c2)C(C)C)no1	0
COc1ccccc1NC(=O)c1c(O)c2cccnc2[nH]c1=O	50
Cc1cc2cccc(C(=O)N3CCC(Cn4cc(CO)nn4)CC3)c2o1	-44

Reformatted: entries from further up.
CS(=O)(=O)n1c(C(=O)C2CC2)cc2c1c1ccccc1n2CC1CC1
- Tg IFNy HTS: -3
Cc1nc(CN(Cc2ccc3c(C)cc(=O)oc3c2)C(C)C)no1
- Tg IFNy HTS: 0
COc1ccccc1NC(=O)c1c(O)c2cccnc2[nH]c1=O
- Tg IFNy HTS: 50
Cc1cc2cccc(C(=O)N3CCC(Cn4cc(CO)nn4)CC3)c2o1
- Tg IFNy HTS: -44

Going on with the list.
SMILES	Tg IFNy HTS
COC1(C)CNc2ccccc2C(=O)N1 (stereo not given)	5
C=C1[C@H](CO)[C@@H](O)C[C@@H]1n1cnc2c(=O)[nH]c(N)nc21	14
COCCNC(=O)C[C@@H]1CC[C@H]2[C@@H](COC[C@H](O)CN2C(=O)c2cc(Cl)cc(Cl)c2)O1	-3
CC(=O)N1CCC2(C(=O)Nc3cccc(C(N)=O)c3)CC2C1 (stereo not given)	6
CCOC(=O)CCCCC(=O)c1c(C)n(C(=O)c2ccco2)c(=O)n1C(=O)c1ccco1	0
CC(C)CN(C[C@@H](O)[C@H](Cc1ccccc1)NC(=O)O[C@H]1CCOC1)S(=O)(=O)c1ccc(N)cc1	-2
OC(CN1CCN(c2ncccn2)CC1)c1ccc(F)cc1 (stereo not given)	11
Cc1[nH]cnc1-c1nccn1CCc1ccccc1Cl	-7
COc1ccc(CN(C(=O)c2cc(-c3ccc(C)cc3)on2)C2CCN(C)CC2)cc1	-76*
COc1cccc(CC(=O)N2CCn3cnc(COCC4CC4)c3C2)c1	38
COc1cccc(C(=O)N2CCC3(CC2)Nc2ccc(Cl)cc2-n2cccc23)c1	37
CN(C)C(=O)[C@H]1CNC[C@@H]1c1ccnc(N2CCCCC2)n1	-2
CCC(C)N(Cc1cccnc1)C(=O)CCSC (stereo not given)	-47
CCc1ccc(Nc2nc(C(=O)NCc3ccc(OC)c(OC)c3)nc3ccccc23)cc1	-79*
Cc1ccc2[nH]nc(C(=O)N3CCOC(CCCC(C)C)C3)c2c1 (stereo not given)	-18
c1ccc(-c2ncc(CN3CCN(c4ccccn4)CC3)[nH]2)cc1	1
N#C[C@H]1N[C@H](CO)[C@H]1c1ccc(C2=CCCC2)cc1	-4
COCCNC(=O)[C@@]12COC[C@@H]1CN(c1cc(OC)ncn1)C2	21
O=C(C[C@@H]1CC[C@H]2[C@@H](COC[C@@H](O)CN2Cc2ccc(F)cc2)O1)NCCc1ccccc1	-1
COCc1[nH]n2c(=O)cc(C(C)n3ccnc3C(C)C)nc2c1-c1ccccc1 (stereo not given)	-6
CO[C@H]1CN(C)C(=O)c2cc(NC(C)=O)ccc2OC[C@@H](C)N(Cc2ccncc2)C[C@H]1C	-52
C=C(C)c1cccc(C(C)(C)NC(=O)N2CCc3ccccc32)c1	13
Cc1nnc([C@H]2CC[C@H]3[C@@H](CCN3S(C)(=O)=O)O2)o1	40
CCOc1ccc(N(C(=O)c2ccc(C)cc2)C2(C(=O)NCc3ccccc3)CCN(C(C)=O)CC2)cc1	5
c1cnc(N2CCOCC3(CCN(Cc4cccs4)CC3)C2)nc1	58
Cc1ccccc1-c1ccc([C@@H]2[C@@H](CO)N3C(=O)CN(C(=O)c4ccncc4)C[C@H]23)cc1	-9
Cn1cnc(S(=O)(=O)N[C@H]2CC[C@H](CC(=O)NCC3CCCCC3)O[C@H]2CO)c1	3
Cc1ccc(Cl)cc1NC(=O)Cn1ncc2c(N3CCC(C)CC3)ncnc21	-21
CN(C)C(=O)N1CC[C@@H]2[C@@H]1CCC(=O)N2c1ccccc1	1
CO[C@@H]1CC[C@H]2CCOc3ccc(C#N)cc3C(=O)N(C)[C@H](C)C(=O)N(C)C[C@@H]1O2	-5
CCC(Nc1nc(-c2ccncc2)nc2c1CNC2)c1cc(C)ccn1 (stereo not given)	-46
O=C1CCCN1Cc1ncn2c1CN(Cc1cccs1)CCC2	-26
CCOc1ccc2[nH]c(=O)c(CN(C)Cc3cc(C)on3)cc2c1	-18
Cn1nc(-c2ccc(-c3ccnc(SCc4ccccc4)n3)s2)cc1C(F)(F)F	-97*
COc1cccc(-c2ccccc2[C@@H]2[C@@H](C#N)N(C(=O)Cc3ccccc3)[C@H]2CO)c1	-33
COc1ccc(F)cc1S(=O)(=O)NCCc1sc(-c2cccc(F)c2)nc1C	39
CO[C@H]1CN(C)C(=O)c2cc(NC(=O)C3CCCCC3)ccc2OC[C@H](C)N(C(=O)c2ccccc2)C[C@H]1C	-67
C[C@@H]1CN([C@@H](C)CO)C(=O)c2cccc(NS(=O)(=O)c3ccc(F)cc3)c2O[C@@H]1CN(C)Cc1ccc(Cl)c(Cl)c1	-45
Cc1cc(=O)n(C)c(=O)n1CCCCCN1CCCC1	-15
Cc1cccc(-c2nnc(-c3nc(NC4CCS(=O)(=O)C4)c4ccccc4n3)o2)c1 (stereo not given)	-96*
Cc1ccnc(NC(=O)CN2C(=O)CCc3cc(S(=O)(=O)N4CCCCC4C)ccc32)c1 (stereo not given)	-10
CC(C)c1ccc(NC(=O)CN2C(=O)CCc3cc(S(=O)(=O)N4CCCCC4C)ccc32)cc1 (stereo not given)	-75*
COC1CCC(C(=O)n2nc(N)c3c(C(F)(F)F)cc(C)nc32)CC1 (stereo not given)	-37
CN(C)CCCNC(=O)c1ccn(-c2ccc3ccccn23)n1	-2
Nc1nc(Sc2ccc(F)cc2)cc(N2CC(c3cccnc3)C2)n1	?
COc1ccc(-n2c(=O)c(C(=O)Nc3cccc(F)c3)c(O)c3cccnc32)cc1	29
C=CCO[C@H]1CCN(Cc2nccn2C)[C@H]1Cc1cccnc1	3
COc1ccc(-c2cn(CC[C@@H]3CC[C@H](NC(=O)c4cnccn4)[C@H](CO)O3)nn2)cc1	-6
O=C(C[C@@H]1C=C[C@@H](NC(=O)Nc2cccc(F)c2)[C@@H](CO)O1)NCC1CCCCC1	-23
Cc1cc(OCC(=O)c2cccc(C(F)(F)F)c2)n2cnnc2n1	-65

Following part.
SMILES	Tg IFNy HTS
CN(C)c1ccc(CN2CCC(c3nc4ccc(-c5cccnc5)cn4n3)CC2)cc1	-1
COCC(=O)N1C[C@@H](C(=O)N2CCCO2)C[C@@H]2OCC[C@@H]21	4
O=C(c1ccc2c(c1)OCO2)N1C[C@H]2[C@@H](c3ccccc31)[C@@H](CO)N2C(=O)CC1CC1	2
FC(F)(F)c1ccnc(-c2ccccc2)n1	-27
CC(=O)N1CCC2(CC1)OC(=O)C(C)=C2C(=O)N1CCN(C2CCCCC2)CC1	33
Cc1cccc(S(=O)(=O)N2C[C@@H]3[C@H](c4ccccc42)[C@H](CO)N3Cc2ccc3c(c2)OCO3)c1	-15
Cc1cc(C)n(Cc2nc(-c3ccc(NC(=O)C4CCC4)cc3)oc2C)n1	87
COCC(C)(C)CNC(=O)c1nc2ccccc2[nH]c1=O	-19
COc1ccc2c(c1)CCCN2Cc1ccnc(N2CCCC2)n1	46
COCCN1CC2CN(C(=O)c3ccncc3)CCC2(c2ccccc2)C1 (stereo not given)	1

A stretch from further up, as a working copy:
SMILES	Tg IFNy HTS
CN(C)c1ccc(CN2CCC(c3nc4ccc(-c5cccnc5)cn4n3)CC2)cc1	-1
COCC(=O)N1C[C@@H](C(=O)N2CCCO2)C[C@@H]2OCC[C@@H]21	4

Bioassay records from PubChem BioAssay.

The list is partial; count on the stated rates, not on these rows.
